High-throughput results as filed in PubChem.
MgrA DNA FP: modulators of Staphylococcus aureus MgrA DNA binding | inhibition, %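 (about 10 µg/mL by stock and volumes)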 | fluorescence polarization | 84,000 compounds, 0.13% hits | AID 602314;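 active means above 50% in either of two replicates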;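 further: 0% = protein plus DNA without compound and 100% = DNA alone without protein; higher means less MgrA bound to DNA so lower polarization; one replicate is shown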
Sa helicase inh: blocks Staphylococcus aureus DNA helicase; purified S. aureus helicase, fluorescence unwinding assay; about half of the hits fall short of the stated cut; inhibition, %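 (tested at about 80 µM)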; 120,000 compounds, 0.05% hits;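 active means both duplicates at 50% or more, or one of them with a favoured structure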;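 further: 0% = mean of negative control wells and 100% = mean of positive control wells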
An asterisk follows results filed as active; x = not tested or not shown. Some of the compounds tested (hit frequency here may not be typical).

MgrA DNA FP	Sa helicase inh	structure
-1.0	4	COC(=O)c1cc(NC(=O)C2CC(=O)NC3=C2C(=O)CCC3)cc(C(=O)OC)c1 (configuration not stated)
x	33	O=C(CNCc1ccc2c(c1)OCO2)NCc1ccc2c(c1)OCO2
x	-13	COc1ccc(C(=O)NCc2nnc(SC/C=C/c3ccccc3)o2)cc1
0.5	-1	Nc1nnc2c(Nc3ccccc3)nc3nonc3n12
x	1	CC(C)(C)C(=O)COC(=O)c1cc(-c2ccco2)nc2ccccc12
x	9	CCOc1ccc(-c2noc(CCC(=O)O)n2)cc1
-3.1	x	CN1c2ccccc2C(=O)/C(=C\Nc2ncccn2)S1(=O)=O
-2.5	17	CC1CN(C(=O)Cc2ccc(Cl)cc2)CC(C)O1 (configuration not stated)
x	2	Cn1c(=O)oc2cc(NC(=O)c3ccccc3)ccc21
-1.6	x	CSc1sc(C#N)c2c1S(=O)(=O)N(C)c1ccccc1-2
x	5	Cc1[nH]c2c(C)cccc2c(=O)c1CN1CCOCC1
x	-9	CCCCn1c(=O)n(C)c(=O)c2cc3c(nc21)-c1cc(F)ccc1OC3O (configuration not stated)
1.9	1	CCN(CC)c1ccc2ccc(=O)oc2c1
-7.0	10	CCCNS(=O)(=O)c1ccc(CCC(=O)NC2CCCC2)cc1
0.3	x	O=C(Nc1csc2ccccc12)N1CCOCC1
0.6	3	O=C(O)C1CCC(CNCc2c(Cl)cccc2Cl)CC1 (configuration not stated)
x	-43	N#C/C(=C\N1CCN(Cc2ccccc2)CC1)S(=O)(=O)c1ccc(Cl)cc1
x	2	O=C(COc1ccc(-c2nnco2)cc1)N1CCSc2ccccc21
x	11	CC(C)(CNC(=O)c1ccccc1NS(C)(=O)=O)N1CCCCC1
-1.3	x	COCCC[n+]1c(C)csc1Nc1c(C)cc(C)cc1C
-3.8	5	CCCCS(=O)(=O)/C=C/C1C2C=CC(C2)C1S(=O)(=O)CCCC (configuration not stated)
0.1	17	CN(C(=O)COC(=O)c1cncc(Br)c1)c1ccccc1
-0.2	17	CC(=O)NC(NC(C)=O)c1ccccc1
0.7	0	CC1(C)CC(=O)C=C(NCC2CCN(C(=S)Nc3ccccc3)CC2)C1
2.3	-15	O=S(=O)(NC1CCc2ccccc21)c1ccc(S(=O)(=O)N2CCCC2)cc1 (configuration not stated)
-0.1	8	COc1ccc(CCC(=O)NCc2cn3ccc(C)cc3n2)cc1
x	-15	COc1ccc(-n2nc3cc(C)c(NC(=S)NC(=O)c4oc5ccccc5c4C)cc3n2)cc1
3.5	x	CCOC(=O)C1=C(N)OC2=C(C(=O)CC(C)(C)C2)C1c1ccc(O)c(OC)c1 (configuration not stated)
2.5	1	O=C(C1CC(=O)N(c2ccccc2)C1)N1CCc2ccccc2C1 (configuration not stated)
x	-14	Cc1[nH]n(-c2ccccc2)c(=O)c1Sc1c(F)c(F)c(F)c(F)c1F
10	21	O=C(Nc1ccccc1C(=O)O)c1cc[n+]([O-])cc1
x	22	CC(Sc1nc(C2CC2)n(-c2ccccc2)n1)C(=O)NC(C)(C#N)C(C)C (configuration not stated)
x	-30	Cc1nc2ccc(Br)cc2c(=O)n1-c1ccccc1N1CCOCC1
3.5	-7	COc1cccc(C(O)C(F)(F)F)c1 (configuration not stated)
-1.6	-2	CCCNC(=O)Nc1ccc2c(c1)CCC2
-2.2	3	Cc1c(C=Nc2cccc3nsnc23)c(=O)n2c([nH]c3ccccc32)c1C#N
17	12	O=C(Oc1ccc(-c2ccccc2)nn1)c1cccs1
-2.8	-1	CC(C)Cn1c(SCC(=O)Nc2ccc(F)cc2F)nc2ccccc2c1=O
-0.6	8	CCC(Sc1nc(C)cc(C)n1)C(=O)Nc1sc2c(c1C#N)CCCC2 (configuration not stated)
x	-11	Nc1nc(CSc2nnc(-c3cccc(F)c3)n2-c2ccccc2)nc(N2CCOCC2)n1

Next section; it opens with the 2 that closed the last part.
MgrA DNA FP	Sa helicase inh	structure
-0.6	8	CCC(Sc1nc(C)cc(C)n1)C(=O)Nc1sc2c(c1C#N)CCCC2 (configuration not stated)
x	-11	Nc1nc(CSc2nnc(-c3cccc(F)c3)n2-c2ccccc2)nc(N2CCOCC2)n1
-1.6	x	O=C(Nc1ccc(OC(F)(F)F)cc1)OC(Cc1ccccc1)C(F)(F)F (configuration not stated)
0.0	x	Cc1c(C)c(C)c(C(=O)c2ccccc2C(=O)NN)c(C)c1C
3.8	x	CCCC(=O)Nc1nc2c(ncn2C2O[C@H]3COP(=O)(O)O[C@@H]3[C@@H]2OC(=O)CCC)c(=O)[nH]1 (some centres not stated)
x	0	O=C(CC(c1ccccc1)c1ccccc1)Nc1nnc(-c2ccccc2)o1
x	-11	CC(C)CCn1c(=O)c2ccccc2n2c(CN3CCCC3)nnc12
-2.8	8	CCc1c(C(=O)N2CCN(Cc3cccc(OC)c3)CC2)csc1C
x	32	O=c1oc2c3c(ccc2c2c1CCC2)OCN(CCc1ccccc1)C3
-5.9	11	CN(C)c1nc2cc(Cl)ccc2o1
1.2	x	FC(F)(F)Oc1ccccc1NC(=S)NCc1ccc2c(c1)CCO2
-2.0	x	Cc1onc(-c2c(F)cccc2Cl)c1C(=O)c1ccc(F)cc1
x	20	CCC(NCc1c(O)ccc2c3c(c(=O)oc12)CCC3)C(=O)O (configuration not stated)
2.8	-28	Cc1ccccc1OCC(=O)OCC(=O)N1c2ccccc2CC1C (configuration not stated)
2.2	x	O=C(O)c1nccnc1C(=O)NC1CCN(Cc2c(F)cccc2Cl)CC1
x	-1	Cc1ccc(CNC(=O)CCCn2nc(-n3cccc3)c3c(C)cc(C)nc32)cc1
x	31	O=C(NCCN1CCN(C(=O)NC2CCCCC2)CC1)NC1CCCCC1
x	-1	CCOC(=O)Cn1c(=O)oc2cc(S(=O)(=O)NCc3ccccc3OC)ccc21
2.6	-18	CN(Cc1ccccc1)Cn1[nH]c(=O)ccc1=O
-2.5	14	Cc1cccc(C)c1NC1OC(=O)c2ccccc21 (configuration not stated)
x	-9	O=C(O)c1ccc(CSc2nnc(-c3ccccc3)o2)cc1
-2.7	x	CC(C)(C)C(=O)Nc1ncccc1C(=O)O
-2.6	10	COc1ccccc1S(=O)Cc1ccc(C(=O)O)o1 (configuration not stated)
x	-9	O=C(NC1CCCC(C(F)(F)F)C1)c1ccncc1 (configuration not stated)
x	3	O=C1CC(N2CCOCC2)C(=O)N1 (configuration not stated)
-2.2	7	COc1ccc(Cn2nnnc2C(C(C)C)N2CCc3ccccc32)cc1 (configuration not stated)
x	7	COC(=O)Cn1c(=NC(=O)CSCC(=O)Nc2nccs2)sc2cc(OC)ccc21
x	-37	COc1ccc(-c2noc(-c3cc4ccccc4o/c3=N\NS(=O)(=O)c3ccc(OC)c(OC)c3)n2)cc1
x	16	O=C(C1CCCCC1)N1CCN=C1SCc1cccnc1
x	-8	CS(=O)(=O)c1ccc2nc(NC(=O)c3ccc4nc[nH]c4c3)sc2c1
x	6	CCOc1ccc(Oc2c(/C=N/NC(N)=O)c(C)nn2-c2ccccc2)cc1
-0.3	3	O=C(Cc1ccc(F)cc1)Nc1ccc(CN2CCCC2)cc1
x	6	Cc1nc2sccn2c(=O)c1S(=O)(=O)N1CC(=O)N(CCc2ccccc2)C(=O)C1
-1.5	11	Cc1ccc(C(=O)Nc2ccc(Oc3ccccc3)cc2)cc1I
1.8	x	N#CC(C#N)C(CC(=O)c1ccc(Cl)cc1)c1cccs1 (configuration not stated)
x	-8	C=C(C)C(C)(O)C#CCN1CCCC1 (configuration not stated)
x	1	O=C(NCC(F)(F)F)c1ccc(N2CCCC2=O)cc1
0.7	x	N/C(=N\O)c1ccc(OCc2ccccc2)cc1
x	-17	Cc1noc(C)c1CSCC(=O)OCn1nnc2ccccc2c1=O
0.1	-3	O=C(CCCC1=NS(=O)(=O)c2ccccc2N1)N1CCCCCC1
1.1	9	Cc1ccc2[nH]c(=O)c(-c3noc(C(C)(C)C)n3)cc2c1
-0.8	x	COc1ccc(N=C2SCC(c3ccc(C)cc3)=NN2CCO)cc1
8.0	-10	CS(=O)(=O)N(CCc1ccccc1)CC(=O)N1CCc2ccccc2C1
x	-4	CC(C)Oc1ccccc1C(O)c1nnc(-c2ccccc2)o1 (configuration not stated)
x	9	COc1ccc(S(=O)(=O)c2cc3cc(Br)ccc3oc2=O)cc1OC
x	-5	Cc1[nH]c(-c2ccc(F)cc2)cc1C(=O)NCc1ccccn1
-1.2	x	COc1ccccc1-c1nc(COc2ccc(Cl)cc2Cl)no1
14	11	CC(OC(=O)c1cc2sccc2n1C)C(=O)NCc1cccs1 (configuration not stated)
1.3	9	CCC1CCCCN1C(=O)CSc1nnc(-c2ccc(Cl)cc2)o1 (configuration not stated)
-3.8	18	CCC1CCCCN1C(=O)c1ccc(C(C)(C)C)cc1 (configuration not stated)
x	-14	Cc1cccc(C(=O)OCC(=O)NC23CC4CC(CC(C4)C2)C3)c1O
1.3	17	CC1CCN(C(=O)c2ccc(N3C(=O)c4ccccc4C3=O)cc2)CC1

Next part.
MgrA DNA FP	Sa helicase inh	structure
2.4	x	C/C(=N\N=C(/C)c1ccc(C)cc1)c1ccc(C)cc1
0.4	-21	CCC(=O)N(CCc1ccccc1)C1CC(=O)N(c2ccccc2)C1=O (configuration not stated)
x	-15	O=C(Oc1ccc(Cl)cc1Cl)c1csc(-c2ccc3nonc3c2)n1
4.9	-33	CC(=O)Oc1cccc2c1OC(C)(C)C2
x	-46	N#CC(C#N)=C1C(=O)c2ccccc2C1=O
x	4	Cc1cc(C)c(C)c(S(=O)(=O)Nc2ccccc2C(=O)NCCCN2CCOCC2)c1C
x	2	CCOC(=O)C1=C(CSc2nnc(-c3ccccc3)n2CC)NC(=O)NC1c1cccs1 (configuration not stated)
x	10	Cc1cc2nc(N3CCc4ccccc43)c3ccccc3n2n1
3.5	-7	O=C(O)c1ccc(N/C=C/C(=O)c2ccco2)cc1
x	-31	O=C(CC(c1cccs1)N1Cc2ccccc2C1=O)N1CCC2(CC1)OCCO2 (configuration not stated)
x	-2	CN(C)S(=O)(=O)c1ccc(C(=O)OCC(=O)c2cc3ccccc3o2)cc1
x	-15	O=C(CSc1ccccc1)OCC(=O)c1cc2ccccc2o1
x	16	CCSC1=NCCN1S(C)(=O)=O
x	7	NC(=O)NCC(=O)N1CCN(C(=O)c2ccccc2)CC1
x	0	O=C(NCCc1nnc2ccc(NCCO)nn12)c1ccccc1
-2.0	x	CCOC(=O)N/N=C/c1ccccc1Cl
x	19	Cc1cc(C(=O)CSc2nnc3ccccn23)c(C)n1-c1ccccc1
1.6	-21	COc1ccc(S(=O)(=O)CCc2nc3ccccc3n2CC(=O)O)cc1
4.4	x	Clc1ccc2c(c1)C(N1CCNCC1)=Nc1ccccc1O2
x	12	COc1ccc(-n2ccnc2SCC(=O)N2CCCC2c2cccs2)cc1 (configuration not stated)
0.3	-5	Cn1cc(-c2nnc(-c3ccccc3)o2)c2ccccc21
x	-16	O=C(CSc1nc2sc3c(c2c(=O)n1Cc1ccco1)CCCC3)NC(=O)NC1CC1
-4.2	1	O=C(O)COc1ccc2nncn2n1
-0.8	x	CN(n1cnc2ccsc2c1=O)S(=O)(=O)c1ccc(Cl)cc1
x	-1	N#Cc1c(C(F)(F)F)cc(=O)[nH]c1S
-1.7	x	O=C(CCc1nc(-c2ccccn2)no1)NCc1ccc(F)cc1
x	6	O=C1CSc2nnc(Cn3nnc4ccccc43)n2N1
2.0	7	COc1ccc(N(C(C)=O)c2nc3ccccc3[nH]2)cc1
-0.3	16	CCC(=O)Nc1ccc2c(c1)oc1ccccc12
-0.9	x	O=C(O)C1=CN(C2CCCCC2)c2ccccc2C1
0.2	-7	COc1cc(N(C(=O)c2cnccn2)C(C(=O)NCc2ccccc2)c2cccs2)ccc1-n1cnnn1 (configuration not stated)
x	-8	O=C(COC(=O)C12CCC(=O)N1c1ccccc1S2)c1ccc2c(c1)OCO2 (configuration not stated)
x	21	O=C1NC(=O)C2C1Sc1[nH]c(=O)sc1C2c1c[nH]c2ccccc12 (configuration not stated)

By substructure: those above with an aryl methoxy group (18)
MgrA DNA FP	Sa helicase inh	structure
x	-13	COc1ccc(C(=O)NCc2nnc(SC/C=C/c3ccccc3)o2)cc1
-0.1	8	COc1ccc(CCC(=O)NCc2cn3ccc(C)cc3n2)cc1
x	-15	COc1ccc(-n2nc3cc(C)c(NC(=S)NC(=O)c4oc5ccccc5c4C)cc3n2)cc1
3.5	x	CCOC(=O)C1=C(N)OC2=C(C(=O)CC(C)(C)C2)C1c1ccc(O)c(OC)c1 (configuration not stated)
3.5	-7	COc1cccc(C(O)C(F)(F)F)c1 (configuration not stated)
-2.8	8	CCc1c(C(=O)N2CCN(Cc3cccc(OC)c3)CC2)csc1C
x	-1	CCOC(=O)Cn1c(=O)oc2cc(S(=O)(=O)NCc3ccccc3OC)ccc21
-2.6	10	COc1ccccc1S(=O)Cc1ccc(C(=O)O)o1 (configuration not stated)
-2.2	7	COc1ccc(Cn2nnnc2C(C(C)C)N2CCc3ccccc32)cc1 (configuration not stated)
x	7	COC(=O)Cn1c(=NC(=O)CSCC(=O)Nc2nccs2)sc2cc(OC)ccc21
x	-37	COc1ccc(-c2noc(-c3cc4ccccc4o/c3=N\NS(=O)(=O)c3ccc(OC)c(OC)c3)n2)cc1
-0.8	x	COc1ccc(N=C2SCC(c3ccc(C)cc3)=NN2CCO)cc1
x	9	COc1ccc(S(=O)(=O)c2cc3cc(Br)ccc3oc2=O)cc1OC
-1.2	x	COc1ccccc1-c1nc(COc2ccc(Cl)cc2Cl)no1
1.6	-21	COc1ccc(S(=O)(=O)CCc2nc3ccccc3n2CC(=O)O)cc1
x	12	COc1ccc(-n2ccnc2SCC(=O)N2CCCC2c2cccs2)cc1 (configuration not stated)
2.0	7	COc1ccc(N(C(C)=O)c2nc3ccccc3[nH]2)cc1
0.2	-7	COc1cc(N(C(=O)c2cnccn2)C(C(=O)NCc2ccccc2)c2cccs2)ccc1-n1cnnn1 (configuration not stated)
